Compound activity deposited in PubChem by ICCB-Longwood Screening Facility, Harvard Medical School.
MgrA DNA FP: S. aureus MgrA-DNA binding modulation; 84,000 tested, 0.13% active; fluorescence polarization; inhibition, %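 (about 10 µg/mL by stock and volumes)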;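 active = above 50% in either of two replicates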;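 note: 0% = protein plus DNA without compound and 100% = DNA alone without protein; higher means less MgrA bound to DNA so lower polarization; one replicate is shown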
S aureus helic: S. aureus DNA helicase inhibition; purified S. aureus helicase, fluorescence unwinding assay; about half of the hits fall short of the stated cut; inhibition, %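 (tested at about 80 µM)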; 120,000 tested, 0.05% active;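 active = both duplicates at 50% or more, or one of them with a favoured structure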;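 note: 0% = mean of negative control wells and 100% = mean of positive control wells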
An asterisk follows results filed as active; / = not tested or not shown. These rows are one share of the data, so the mix of outcomes need not match the whole.

compound	MgrA DNA FP	S aureus helic
O=C(NCc1ccccc1)C1CCC(Cn2c(=S)[nH]c3ccccc3c2=O)CC1 (configuration not stated)	4.3	12
Cc1nn(-c2ccccc2)c(C)c1COC(=O)c1ccc(S(=O)(=O)N(C)C)cc1	/	15
CN(C)c1ccc(CNc2ccccn2)cc1	/	8
Cc1cc(C)nc(NCCS)n1	-0.4	11
CC1Cc2cc(S(=O)(=O)Nc3ccc(F)cc3)ccc2N1C(=O)C1CCC1 (configuration not stated)	/	-18
COC(=O)c1ccc(C=Nc2ccc3oc(-c4cccc(OC)c4)nc3c2)cc1	0.4	10
Cc1cccc(C(=O)N(C(=O)c2cccc(C)c2)c2nnnn2C)c1	1.9	10
CCOC(=O)Cc1nnc(NC(=O)C(CC)Sc2nc3ccccc3[nH]2)s1 (configuration not stated)	/	7
CCc1c(C(=O)NCc2cnn(C)c2)csc1C	-2.1	24
O=S1(=O)CCC(SCc2nc3ccccn3c2Br)C1 (configuration not stated)	-2.5	-14
COc1ccc(-c2csc(-c3cccs3)n2)cc1OC	/	-8
COc1ccccc1Nc1ncc(C(=O)N(C)c2ccc(Cl)cc2)c2ccccc12	-1.8	9
C=CCn1c(O)c(C2=c3ccccc3=NC2=O)c2ccccc21	3.7	-3
Cc1cc(C)n(-c2ncnc3scc(-c4ccccc4)c23)n1	-3.5	20
O=C(Nc1cccc(C(=O)N2CCCC2)c1)C1=CSCCO1	/	7
CCOC(=O)c1ccc(CNC(=O)Cn2nnc(-c3ccc(C)cc3)n2)o1	/	17
CC(=C1C(=O)c2ccccc2C1=O)N1CCN(CCN=CC2=C(O)CC(c3ccc(C)cc3)CC2=O)CC1 (configuration not stated)	/	-14
CS(=O)(=O)Nc1nnc(SCCCc2ccccc2)s1	0.3	1
COc1cccc(C2NC(=O)NC(C)=C2C(=O)c2ccccc2)c1 (configuration not stated)	/	-13
COC(=O)NC(O)C(=O)c1ccccc1 (configuration not stated)	1.0	9
CSc1nnc2c(n1)[nH]c1ccccc12	/	-10
O=C(CNc1ccccc1N1CCCCC1)N1CCc2ccccc21	/	-8
COc1ccc(NC(=O)c2cccc(S(=O)(=O)N3CCN(C)CC3)c2)c(OC)c1	/	7
COc1c2c(nc3ccccc13)OC(C(C)(O)COC(C)=O)C2 (configuration not stated)	/	-26
CCC(Sc1nc2ccncc2[nH]1)C(=O)N(CC)c1ccccc1 (configuration not stated)	/	-8

Three entries out of the list above, arranged by the number in MgrA DNA FP, ascending:
compound	MgrA DNA FP	S aureus helic
O=S1(=O)CCC(SCc2nc3ccccn3c2Br)C1 (configuration not stated)	-2.5	-14
Cc1cccc(C(=O)N(C(=O)c2cccc(C)c2)c2nnnn2C)c1	1.9	10
C=CCn1c(O)c(C2=c3ccccc3=NC2=O)c2ccccc21	3.7	-3

Additional records
compound	MgrA DNA FP	S aureus helic
CCN1c2ccccc2NC1SCC(=O)Nc1ccc(Cl)cc1 (configuration not stated)	-0.7	21
O=C(Sc1ccccn1)c1csc(C2COc3ccccc3O2)n1 (configuration not stated)	2.6	/
Cc1c(C(=O)OCC(=O)N2CCCC2)oc2ccccc12	/	-16
C#CCNc1cc(Cl)ccc1Cl	/	-34
CC(=O)Oc1cc2oc(=O)cc(-c3ccccc3)c2cc1Cl	/	9
O=C(OCC(=O)N1CCOCC1)c1ccc(Cl)c(S(=O)(=O)N2CCCC2)c1	/	10
Cc1c(Cl)cccc1NC(=O)CSc1nccn1C	-1.9	-12
O=C1C(c2ccccc2)C(c2cccnc2)NC(c2cccnc2)C1c1ccccc1 (configuration not stated)	/	7
CCN(CC1COc2ccccc2O1)S(=O)(=O)c1ccc(C)cc1 (configuration not stated)	0.1	12
O=C(NCC1CC1)Nc1c[nH]c2ccccc2c1=O	-2.9	20
CC(C)c1c(O)nc(SCCN2CCOCC2)[nH]c1=O	-9.8	5
O=C1CCCc2nc3nc(-c4ccncc4)nn3cc21	-3.2	4
CCOC(=O)/C(C#N)=C\c1ccc(Br)s1	-1.0	5
O=c1cc(CO)oc(C(Nc2nccs2)c2ccc(F)cc2)c1O (configuration not stated)	/	15
CCN(CCO)c1ccccc1	2.5	-19
CC1(C)CC(=O)C2=C(C1)N(Cc1ccco1)C(=O)NC2(C(F)(F)F)C(F)(F)F	-2.4	-4
N#Cc1ccc(OCc2nnc3n2CCC3)cc1	/	4
CCn1nc(CCC(=O)O)c2ccccc2c1=O	-1.9	3
Cc1ccc2cc(CN(CC3CCCO3)C(=O)C3CCC3)c3nnnn3c2c1 (configuration not stated)	-20	10
CCOc1cc(/C=C2/SC(=Nc3ccccc3C(F)(F)F)NC2=O)ccc1O	/	-33
CCSc1ncnc2c1c(-c1ccccc1)cn2-c1cccc(F)c1	-1.1	13
CC(C)(C)OC(=O)NC1CCN(S(=O)(=O)c2ccc(OC(F)(F)F)cc2)CC1	/	1
Cc1noc(C)c1COc1cccc(C(=O)N2CCCSC2=Nc2ccccc2)c1	/	-9
O=C1CC(c2ccccc2)Oc2ccc(O)cc21 (configuration not stated)	-1.1	/
CC1=C(C(=O)Nc2ccc(CC(=O)NCc3ccc4c(c3)OCO4)cc2)SCCO1	/	22

Laid out differently: 4 of the compounds above
MgrA DNA FP	S aureus helic	Compound
/	4	N#Cc1ccc(OCc2nnc3n2CCC3)cc1
-1.9	3	CCn1nc(CCC(=O)O)c2ccccc2c1=O
-20	10	Cc1ccc2cc(CN(CC3CCCO3)C(=O)C3CCC3)c3nnnn3c2c1 (configuration not stated)
/	-33	CCOc1cc(/C=C2/SC(=Nc3ccccc3C(F)(F)F)NC2=O)ccc1O

The list continues:
Order of values: MgrA DNA FP | S aureus helic
O=C(Cn1cnc2c(oc3ccccc32)c1=O)NCCc1ccccc1
  / | 15
CN(C)c1ccc(/C=N/NC(=S)NC(C)(C)C)cc1
  / | -1
Cc1onc(-c2ccccc2)c1C(=O)N1CCN(C(=O)C2COc3ccccc3O2)CC1 (configuration not stated)
  / | -18
CCN(CC)CCN=Cc1c(O)n(-c2ccccc2Cl)c(=O)c2ccccc12
  -1.5 | -3
Clc1ccc(Nc2ncnc3c2cnn3-c2ccccc2)cc1
  -2.2 | 12
N#CC1=C(SCC(N)=O)NC2=C(C(=O)CCC2)C1c1ccco1 (configuration not stated)
  -0.1 | -2
CS(=O)(=O)c1ccc2nc(NC(=O)C3CC3)sc2c1
  / | -17
CCCc1nc(C(C#N)c2ccc(F)cc2)c2nnn(Cc3ccccc3)c2n1 (configuration not stated)
  -7.1 | 9
Cc1nc(-c2noc(-c3ccc(C(F)(F)F)cc3)n2)cs1
  -2.6 | /
O=c1oc2ccc(Cl)cc2c(=O)n1-c1cccc(C(F)(F)F)c1
  0.9 | 7
NC(CO)(CO)COCc1ccccc1
  -1.4 | 8
CNS(=O)(=O)c1ccc2oc3ccc(S(=O)(=O)NC)cc3c2c1
  1.4 | 6
COc1cc(-c2nnc(SCc3cc(=O)oc4ccc5ccccc5c34)o2)cc(OC)c1OC
  / | 30
C=CCNC(=O)c1cc2c(=O)n3ccccc3nc2s1
  / | 11
COC(=O)c1n[nH]n(-c2cc(Cl)cc(Cl)c2)c1=O
  2.0 | /
COC(=O)c1ccc(-c2nc3ccccc3[nH]2)cc1
  / | -14
O=C(COC(=O)/C=C/c1cccs1)Nc1ccccc1
  -0.1 | 4
CCC(C)/C(=N\O)c1ccccc1 (configuration not stated)
  / | -13
COc1cccc(NC(=O)Cn2c(C)cc(C)c(C#N)c2=O)c1
  -0.1 | 10
CC(NS(=O)(=O)c1ccccc1)C(c1cccs1)N1CCOCC1 (configuration not stated)
  / | -1
CCS(=O)(=O)N1Cc2ccccc2CC1C(=O)N1CCN(S(=O)(=O)c2ccc(C)cc2)CC1 (configuration not stated)
  / | 11
N#Cc1c(=O)c2nc(NCCc3ccccc3)ncc2n2c(=O)c3cc(Br)ccc3[nH]c12
  / | -4
COc1cccc(/C=C2/SC(=O)N(C)C2=O)c1O
  0.6 | 11
O=C(NC1C2CC3CC(C2)CC1C3)c1cccnc1Cl (configuration not stated)
  -1.0 | -13
Cc1c(NS(=O)(=O)c2cccc(C(=O)N3CCN(c4ccccc4F)CC3)c2)c(=O)n(-c2ccccc2)n1C
  / | 6
CC(C)(C)c1cc(CCC(=O)NN)cc(C(C)(C)C)c1O
  -1.1 | 3
CC(=O)N1CCC(c2nc(-c3cccs3)no2)CC1
  -0.8 | /
CCCCN1CCc2c([nH]c3c(C)cccc23)C1=O
  1.3 | 10
CC(C)Oc1ccc(-c2nn(-c3ccccc3)cc2/C=C(\C#N)S(=O)(=O)c2ccccc2)cc1
  4.0 | 5
O=C(NC(=S)NCc1cccnc1)c1ccccc1
  -1.6 | /
COc1cc(Br)cc2cc(-c3nc(-c4nonc4N)no3)c(=O)oc12
  / | -7
c1ccc(CN2CCC(=NNc3nncc4ccccc34)CC2)cc1
  / | -6
O=C(O)CSc1c2c(nc3cc(C(=O)Nc4cccc(C(F)(F)F)c4)ccc13)CCCC2
  2.3 | 21
COc1ccc(NC(=O)c2sc3nc(C)nc(N(C)c4ccc(C(C)C)cc4)c3c2C)c(OC)c1
  -0.1 | 6
O=C(CC12CC3CC(CC(C3)C1)C2)Nc1cccc(-c2nn3cnnc3s2)c1
  / | -10
COc1ccc(OCCn2cnc3ccccc32)cc1
  -0.2 | 6
Cc1cc(=O)oc2cc(OCc3ccccc3F)ccc12
  / | 7
COc1ccccc1C(=O)CSc1ccccn1
  -0.2 | -16
CC(=O)c1ccc(OCc2c(F)cccc2Cl)cc1
  -2.7 | /
CC(C)(C)S(=O)(=O)c1cnc(-c2ccncc2)nc1N
  0.0 | /

Overlap with the part before: two entries; new compounds follow.
Order of values: MgrA DNA FP | S aureus helic
CC(=O)c1ccc(OCc2c(F)cccc2Cl)cc1
  -2.7 | /
CC(C)(C)S(=O)(=O)c1cnc(-c2ccncc2)nc1N
  0.0 | /
Cc1nc2c3ccccc3nc(NN3C(=O)CCC3=O)n2n1
  -5.8 | 2
COc1ccc(-c2cc(C(=O)NCCN3CCCCCC3)[nH]n2)cc1
  / | -21
Cc1c(C=C2C(=O)c3ccccc3C2=O)cc(C#N)n1C
  3.5 | -26
CC1CCC(N2CCN(Cc3cccc(F)c3)CC2)CC1 (configuration not stated)
  / | 9
CCCCC1(C)OC(=O)C(=Cc2ccc(O)cc2)C(=O)O1 (configuration not stated)
  5.1 | 2
COc1cccc(-n2nnnc2S(=O)(=O)Cc2ccccc2)c1
  2.8 | 2
CC1Cc2ccccc2N1CC(=O)Nc1ccccc1Cl (configuration not stated)
  / | 3
O=c1[nH]c2ccc(Cl)cc2c(-c2ccccc2)c1N1CCCC1
  4.2 | -6
Cc1cc(NC(=O)c2ccccc2F)cc(C)c1OCC(=O)N1CCOCC1
  2.4 | -22
CSc1nc(N)nc(-c2cccnc2)n1
  0.2 | /
COc1ccc(CCNC(=O)c2ccc3c(=O)n(CC4CCCO4)c(=S)[nH]c3c2)cc1OC (configuration not stated)
  4.0 | 9
Cc1ccc(/C=C2\C(=O)N(c3ccccc3C)C(=O)c3ccccc32)o1
  / | 2
CCc1ccc(-c2nn(Cc3ccccc3)cc2CN2CCN(CC(=O)N3CCOCC3)CC2)cc1
  / | -2
Cn1ncc(Br)c1N1C(=O)CCC1=O
  0.4 | /
COc1ccc(C(=O)NNC(=S)Nc2ccc(Cl)cc2C)cc1
  4.0 | /
CCc1ccc(C=C2C(=O)N(C)C(=O)N(C)C2=O)cc1
  10 | /
CCOC(=O)N1CCN(S(=O)(=O)c2cc(OC)ccc2OC)CC1
  -0.2 | -2
N#Cc1c(C(F)(F)F)cc(=O)n2c1[nH]c1ccccc12
  -0.9 | -5
CC1=C(c2ccc(C)c(C)c2)S(=O)(=O)NC1=NCC(=O)NCCc1ccco1
  / | -36
Cc1c(/C=N/O)c(=O)n(-c2ccccc2)n1C
  2.6 | /
COc1ccc(C(=O)c2cnc(C(C)C)n2C)cc1
  / | -6
O=C(CSCc1nc2c(nnn2Cc2ccc(F)cc2)c(=O)[nH]1)NC1CCCCCC1
  1.8 | 2
CCCCN(CC)Cc1c(O)ccc2c(-c3ccccc3)cc(=O)oc12
  / | -38
CCOC(=O)N1CCC(NC(=O)CN2C(=O)CSc3nc(C)cc(C)c32)CC1
  / | 26
Cc1cc(C)c(C#N)c(SCc2nc(COc3cccc(C(F)(F)F)c3)no2)n1
  -2.5 | /
Cc1c(C)c(C)c(CSCC(=O)N/N=C/C=C/c2ccccc2)c(C)c1C
  0.4 | /
O=C(Cn1cc(/C=C2\SC(=Nc3ccccc3)N(Cc3ccco3)C2=O)c2ccccc21)N1CCOCC1
  / | -31
COc1ccc(CSc2nc(O)cc(=O)n2CC(C)C)cc1F
  / | 4
O=C1O/C(=C\C=C\c2ccccc2)c2ccccc21
  1.8 | /
O=C(CCc1cn(Cc2ccc(F)cc2)c2ccccc12)NC1CCCC1
  0.3 | -3
COc1ccc(C(=O)CCN2CCC(C)CC2)cc1
  0.3 | 13
C(=C\c1ccccc1)/C=N/N1CCN(Cc2cccc3ccccc23)CC1
  2.0 | 3
Cc1cc(C)n2nc(SCC(=O)N3CCC(C)CC3)nc2n1
  / | -16
COc1cc(SC)ccc1C(=O)NCC#N
  3.8 | -2

Given field by field: 2 of the compounds above.
COc1c2c(nc3ccccc13)OC(C(C)(O)COC(C)=O)C2 (configuration not stated)
  MgrA DNA FP: /; S aureus helic: -26
Clc1ccc(Nc2ncnc3c2cnn3-c2ccccc2)cc1
  MgrA DNA FP: -2.2; S aureus helic: 12
